Screening results deposited in PubChem by Broad Institute.
FGF22 binding: binders of human FGF22 protein, primary screen, FGF22 synaptogenesis inhibitor project, biophysical, thermal shift, single point; Fibroblast growth factor 22 (Homo sapiens), Q9HCT0; recombinant FGF22 thermal shift, SYPRO orange fluorescence; percent of sucrose octasulfate shift, DMSO zero; calls only at 9.99 µM; 1.5% of 340,000 active;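 active means melting point raised past a set limit in the mean and every replicate; inconclusive means no clear call; three in four hits are not shown here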
Target sequence (Q9HCT0 whole entry, looked up): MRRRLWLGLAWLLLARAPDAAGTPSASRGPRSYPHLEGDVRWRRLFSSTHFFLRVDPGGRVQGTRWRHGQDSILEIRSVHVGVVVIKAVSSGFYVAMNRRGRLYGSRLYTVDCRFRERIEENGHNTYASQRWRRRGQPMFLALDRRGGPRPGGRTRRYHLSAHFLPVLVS
Calb FLC: C. albicans growth inhibition with fluconazole, primary screen, CaCi-2 strain, Alamar Blue fluorescence; C. albicans CaCi-2 (fluconazole-resistant clinical isolate) + fluconazole, 48 h; growth inhibition, % (concentration not given with the values); 0.57% of 300,000 active; AID 1979, 2009;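 active means most replicates above 75%; inconclusive means exactly half above 75%; inactive means most below 75%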;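 further: all wells also contain fluconazole at 8 µg/ml as a sub-toxic cotreatment; 0% = median of DMSO wells and 100% = median of geldanamycin control wells; wells of about 8 µL received 7.5 nL stock; the first replicate is given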
Beta cell apopt: inhibitors of cytokine-induced beta cell apoptosis, primary screen, luminescence; INS-1E cytokine-induced death, ATP luminescence, 48 h; percent of positive-control rescue, neutral wells zero; protection from apoptosis, % (test concentration not listed); 0.8% of 300,000 active;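 active means all replicates at 75% or more, or half of them and the mean; inconclusive means half reach 75% but not the mean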;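 further: 0% = cytokine-treated negative control wells and 100% = positive control rescue; higher means more ATP so stronger rescue from cytokine killing; wells of about 40 µL received 100 nL stock; the first replicate is given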
ALR inh: inhibitors of human ALR sulfhydryl oxidase, primary screen, biochemical, H2O2 detection, HRP-luminol luminescence, single point | FAD-linked sulfhydryl oxidase ALR (Homo sapiens), P55789 | purified ALR, DTT oxidation | inhibition, % (concentration not given with the values) | 3.8% of 290,000 active | AID 485317, 2010;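 active means mean and each replicate at 75% or more; inconclusive means only one of the two met; inactive means neither met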;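 further: stock transfer was 7.5 nL into about 7.5 µL; 0% = neutral wells and 100% = wells with inactivated enzyme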
Target sequence (P55789 whole entry, looked up): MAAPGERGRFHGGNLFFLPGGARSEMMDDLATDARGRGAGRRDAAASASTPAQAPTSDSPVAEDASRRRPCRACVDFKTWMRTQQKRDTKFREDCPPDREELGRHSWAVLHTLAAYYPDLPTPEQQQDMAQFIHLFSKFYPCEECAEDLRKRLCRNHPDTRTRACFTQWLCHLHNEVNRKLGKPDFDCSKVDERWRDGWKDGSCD
RanGTP-Imp inh: inhibitors of RanGTP-importin-beta interaction, primary screen, biochemical, FRET, CFP-Ran, YFP-importin-beta, homogeneous; cell-free CFP-Ran/YFP-importin-beta FRET ratio; Ran GTPase (GTP-bound) - importin-beta complex; 1.1% of 300,000 active; inhibition, % (concentration not given with the values);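 active means most replicates above 15%; inconclusive means exactly half above 15%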;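 further: 0% = DMSO wells and 100% = Ran loaded with GDP instead of GTP; wells of about 40 µL received 100 nL stock; the first replicate is given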
T cruzi inh: inhibitors of intracellular T. cruzi growth, primary screen, luminescence, NIH3T3 host cells; AID 1885, 2009; inhibition, % (concentration not given with the values); T. cruzi beta-gal in NIH3T3, 90 h; 1.4% of 300,000 active;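 active means mean inhibition across valid replicates above about 55%, limit read from the data; inconclusive means mean below that limit but half or more replicates reach it; inactive means mean below it, under half of replicates reach it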;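 further: signal also drops with host cell toxicity which is not excluded here; 0% = plate median of DMSO wells and 100% = zero luminescence signal; higher percent means less beta-gal luminescence so fewer parasites; stock transfer was 50 nL into about 50 µL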
AF4-AF9 inh: inhibitors of AF4 peptide binding to AF9, primary screen, biochemical, AlphaScreen, biotin-AF4 peptide, FLAG-AF9, single point; Protein AF-9 (Homo sapiens), P42568; inhibition, % at 10 µM; 0.47% of 350,000 active; AID 651704, 2012;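 active means every replicate reaching a set inhibition limit, whatever the replicate mean, cut at about 25% in these data; inconclusive means mean inhibition reaches that limit but some replicates miss it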;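 further: 0% = plate neutral control median and 100% = total signal loss; the record names both 10 and 1 µM as test concentration; the first replicate is given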
Target sequence (P42568 whole entry, looked up): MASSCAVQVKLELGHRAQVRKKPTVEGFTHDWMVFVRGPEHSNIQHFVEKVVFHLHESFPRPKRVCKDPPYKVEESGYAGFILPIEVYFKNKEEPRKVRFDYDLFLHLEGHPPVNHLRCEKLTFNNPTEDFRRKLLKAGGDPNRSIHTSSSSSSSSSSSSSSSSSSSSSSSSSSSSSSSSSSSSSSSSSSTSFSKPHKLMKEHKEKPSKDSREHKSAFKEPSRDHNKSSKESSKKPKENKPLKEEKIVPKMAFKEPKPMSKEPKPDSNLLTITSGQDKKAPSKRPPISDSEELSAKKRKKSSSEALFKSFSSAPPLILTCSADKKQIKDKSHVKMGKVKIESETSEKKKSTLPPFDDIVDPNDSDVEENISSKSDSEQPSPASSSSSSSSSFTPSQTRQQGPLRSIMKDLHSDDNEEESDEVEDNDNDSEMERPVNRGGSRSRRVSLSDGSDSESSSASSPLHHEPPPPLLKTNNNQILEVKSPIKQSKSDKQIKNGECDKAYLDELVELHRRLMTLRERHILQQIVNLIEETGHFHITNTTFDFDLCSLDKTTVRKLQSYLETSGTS
Ecoli rRNA inh: reduced GFP signal of wild-type E. coli, primary screen, bacterial rRNA inhibitor project, GFP/RFP fluorescence, OD600, single point | E. coli WT GFP vs humanized-ribosome RFP mutants, 24 h; stronger effect = lower value; DMSO median 0, no signal -100 | 1.6% of 350,000 active | GFP signal change (wild-type ribosome), % (no concentration beside the values);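 active means significant combined selectivity score with lowered wild-type GFP, culture density cut under 30%, mutant RFP and density less affected; inactive means any of these conditions unmet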; further: one replicate is shown; some compounds called inactive have numbers as strong as hits
Ecoli rRNA inh OD600: recorded beside Ecoli rRNA inh, whose call it bears; OD600 change, %; measured here: OD600 growth;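 optical density of the mix in the first replicate; 0 = DMSO median and -100 = no signal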
Ecoli rRNA inh RFP: further read-out of Ecoli rRNA inh, marked with its call; RFP signal change, %; measured here: RFP humanized mutant strains;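 first replicate; 0 = DMSO median and -100 = no signal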
Active calls of the source: *; i = inactive; ? = inconclusive; . = no result given; + = active, no number. These rows are one share of the data; count on the stated rates, not on these rows.

SMILES	FGF22 binding	Calb FLC	Beta cell apopt	ALR inh	RanGTP-Imp inh	T cruzi inh	AF4-AF9 inh	Ecoli rRNA inh	Ecoli rRNA inh OD600	Ecoli rRNA inh RFP
Cc1c(Cl)c([N+](=O)[O-])nn1CCCC(=O)Nc1c(Cl)cccc1Cl	.	32	-3	-1	1.9	15	.	.	.	.
Cc1c(C(=O)O)sc2nc(/C=C/c3cccc(O)c3)[nH]c(=O)c12	i	0	4	.	-1.6	-14	-3.5	4	7	0.2
COc1ccccc1N(CC(O)CN(c1ccccc1)S(C)(=O)=O)S(=O)(=O)c1ccccc1 (centres undefined)	.	0	-8	-5	-0.6	0	.	.	.	.
O=C(NC(=S)NC1C2CC3CC(C2)CC1C3)C12CC3CC(CC(C3)C1)C2 (centres undefined)	i	12	5	-32	5.7	30	2.7	.	.	.
CCC(=O)c1ccc(OCC(=O)Nc2nc(C)cs2)cc1	i	.	2	-2	.	.	-6.7	-27*	-7.2*	4.4*
CCCSc1nnc(-c2ccccc2NC(=O)CC)c(=O)[nH]1	.	4	-2	.	-3.8	-4	.	.	.	.
O=C(CCS(=O)(=O)c1cccs1)N1CCCC1	.	5	-3	1	-1.8	-9	.	.	.	.
COC(=O)c1ccccc1NC(=O)C/C(C)=N/NC(=O)Cc1ccc(Cl)cc1	i	9	-6	-4	1.9	-6	-2.7	5	8	0.4
Cc1nc2ccc(NC(=O)c3cccnc3)cc2s1	i	-7	2	-35	-0.4	-13	-1.4	2	-2	1.6
CCOC(=O)c1c(C)[nH]c(C)c1S(=O)(=O)NCC1CCN(Cc2cccc(Cl)c2)CC1	i	-16	-6	-9	0.3	11	9.3	1	-1	0.5
CCn1cc([N+](=O)[O-])c(C(=O)Nc2ccc(Br)cn2)n1	.	2	-1	-20	-2.0	4	.	.	.	.
COc1ccccc1OCCC(=O)OCC(=O)Nc1ccc(Br)cc1F	i	-5	-1	3	-4.1	0	-3.2	9	18	0.0
O=C(Cc1ccc([N+](=O)[O-])cc1)N1N=C(c2ccncc2)CC1(O)C(F)(F)F (centres undefined)	i	6	-6	-2	2.8	-14	-2.4	14	17	3.6
CC(C)NC(=O)/C(C#N)=C\c1ccc(N(C)C)o1	i	21	1	97*	4.3	0	?	24	23	20
Cc1nnc(NC(=O)C2CCN(C(=O)c3ccco3)CC2)s1	i	-8	-4	-1	?	1	-3.3	18	12	1.8

Brought forward from above: two compounds, then new ones.
SMILES	FGF22 binding	Calb FLC	Beta cell apopt	ALR inh	RanGTP-Imp inh	T cruzi inh	AF4-AF9 inh	Ecoli rRNA inh	Ecoli rRNA inh OD600	Ecoli rRNA inh RFP
CC(C)NC(=O)/C(C#N)=C\c1ccc(N(C)C)o1	i	21	1	97*	4.3	0	?	24	23	20
Cc1nnc(NC(=O)C2CCN(C(=O)c3ccco3)CC2)s1	i	-8	-4	-1	?	1	-3.3	18	12	1.8
COC(=O)c1cccc(-n2c(C)cc(C=O)c2C)c1C	i	1	-1	-3	-0.5	-4	1.0	-6	-10	-2.3
COc1ccccc1N(CC(=O)Nc1ccccc1)S(=O)(=O)c1cccs1	i	.	-7	-6	.	.	?	-8	-21	4.9
COc1ccc(-c2cc(C(F)F)n3ncc(C(=O)n4ccnc4C)c3n2)cc1	.	18	-48	99*	2.1	-24	.	.	.	.
O=C(Nc1nnc(-c2ccccn2)o1)c1cccc(Br)c1	.	1	5	1	-4.3	-20	.	.	.	.
COc1cc(/C=C/c2ccc3cccc(O)c3n2)cc(Cl)c1OC	i	-2	64	-20	?	35	2.3	-22	-28	-9.3
CC(C)(C)NC(=O)CN(C(=O)C(=O)Nc1ccc2c(c1)OCCO2)N1CCOCC1	i	-6	-3	3	-0.1	-4	-1.0	5	5	-0.2
CCC/C=N/NC(=O)C1COc2ccccc2O1 (centres undefined)	i	0	-2	26	2.5	-12	-3.8	2	-16	0.3
COc1ccc(CCNC(=O)CCc2ccsc2)cc1OC	i	6	-2	0	2.5	-4	-18	2	4	0.0
CCOc1ccc(-c2nnc(SCC(=O)Nc3ccc4c(c3)c3ccccc3n4CC)n2N)cc1	.	?	71	5	5.2	2	.	.	.	.
O=C(NNC(=O)c1sccc1-n1cccc1)c1cccs1	i	20	0	.	-0.1	.	-0.4	0	9	1.0
CC1=NC(C(F)(F)F)(C(F)(F)F)C2=C(CC(C)(C)CC2=O)N1Cc1ccco1	.	3	-4	-4	6.1	-3	.	.	.	.
COc1ccc(-c2cn3cccnc3n2)cc1NC(=O)c1ccc(Br)o1	.	39	4	6	0.8	13	.	.	.	.
Cc1cc(C)cc(CC(CC(=O)Nc2ccc(Cl)cc2)C(=O)O)c1 (centres undefined)	i	12	-2	-18	1.9	-4	-5.3	-8	2	-3.2
Cc1ccc(-c2c[n+](CC(=O)Nc3cc(=O)n(C)c(=O)n3C)c3n2CCC3)cc1	.	-8	-7	-20	0.8	13	.	.	.	.
CCn1c(N)c(C(=O)NCC2CCCO2)sc1=S (centres undefined)	.	0	-7	99*	6.6	-20	.	.	.	.
COc1cccc(C2C(C(=O)c3cccs3)=C(O)C(=O)N2c2cc(C)on2)c1 (centres undefined)	.	19	-4	-1	-4.9	-7	.	.	.	.
O=C1C=C(Nc2ccc(Cl)cc2)CC(c2ccc(Cl)cc2)C1 (centres undefined)	.	-12	16	-11	0.9	21	.	.	.	.
CCCOc1ccc(C(=O)CCC(=O)OC(C)C(=O)Nc2ccc(NC(C)=O)cc2)cc1 (centres undefined)	i	-3	-2	1	1.0	-13	-2.4	9	9	3.1
CCn1c(C)c(C)c2cc(C(=O)NCCCN3CCCCCC3)ccc21	i	10	-7	-2	-5.7	17	29*	-6	5	8.8
COc1ccc(NC(=O)CSc2nc(O)cc(=O)n2-c2ccc(OC)cc2)cc1	i	-6	-5	99*	-1.6	-2	1.4	2	15	-1.4
Cc1nnc(SCc2nc3ccccc3s2)n1-c1ccccc1	.	-9	-6	-131	8.5	30	.	.	.	.
Cc1cc(C)n(CCC(=O)N/N=C/c2ccc(Cl)c([N+](=O)[O-])c2)n1	i	-1	-4	-7	-0.2	9	4.0	2	7	-0.2
CCCN(CC(=O)Nc1ccccc1OC)C(=O)c1cc(S(=O)(=O)NCc2ccccc2)ccc1C	i	0	1	-2	?	9	15	5	-7	4.0
O=S(=O)(c1ccc(OCC(O)CNCc2ccco2)c(Cl)c1)N1CCOCC1 (centres undefined)	.	-7	-7	-21	1.4	10	.	11	-1	-2.6
COc1ccc2cc(OCC(=O)NNC(=O)Nc3ccc(OC)c(OC)c3)ccc2c1	i	-4	6	-8	8.6	18	-1.7	5	-3	2.6
Cc1cccc(NC(=O)CSc2nc3ccccc3nc2N2CCCCC2)c1	i	-5	4	3	-2.1	19	5.9	4	5	0.8
CC(C)(C)c1ccc(OCCNC(=O)Cc2ccc(F)cc2)cc1	+	-5	7	-1	-2.0	5	-0.5	.	.	.
COC(=O)CSC(=S)N1CCCC(C)C1 (centres undefined)	i	0	-1	14	2.0	-16	-0.5	2	3	1.8
CCOC(=O)c1nn(-c2ccc3c(c2)OCCO3)cc1O	i	-3	25	7	-3.0	-8	-1.6	-12	-9	-5.1
CCCCN(CCCC)CP(=O)(c1ccccc1)c1ccccc1	.	1	3	-10	-0.4	17	.	.	.	.
COCCn1c(C)cc(C(=O)CSc2ccc3ccccc3n2)c1C	.	-1	-11	63	2.8	20	.	.	.	.
Cn1c(C(=O)NCCCN2CCc3ccccc3C2)cc2c(=O)n(C)c3ccccc3c21	i	-6	0	-19	?	11	3.8	2	5	2.0
Cc1ccccc1-c1nnc(CS(=O)(=O)c2ccccc2)o1	i	-2	-7	-4	6.3	?	-0.1	-3	-1	0.7
O=C(NCc1ccccn1)c1ccc(CNS(=O)(=O)c2cccc(Cl)c2)cc1	i	29	-7	.	6.5	-4	-4.0	7	5	-2.2
COc1ccccc1CNc1ccc(CNc2ncn[nH]2)cc1	i	-29	-1	87*	0.7	-1	5.5	5	14	1.4
CC1CCCC(C)N1CC(O)COc1ccc(Cl)cc1 (centres undefined)	.	1	.	4	4.1	7	.	.	.	.
NC(=O)NOCc1ncc(C(F)(F)F)cc1Cl	.	6	-2	.	0.9	-2	.	.	.	.
COc1cccc2sc(N(CCCN(C)C)C(=O)C(c3ccccc3)c3ccccc3)nc12	i	1	8	.	-1.3	31	12	-50	-79	-25
CS(=O)(=O)N(CC(=O)N1CCN(c2ccc(F)cc2)CC1)C1CCCCC1	.	-3	-8	46	-4.3	5	.	.	.	.
CC(C)(C)NS(=O)(=O)c1ccc(OCC(=O)Nc2ccc3c(c2)OCCO3)cc1	.	7	0	-6	0.9	-5	.	.	.	.
CN(C)S(=O)(=O)c1cccc2nsnc12	.	-6	-5	-10	-1.2	-21	.	.	.	.
CC(=O)N1CCC(C(=O)Nc2nc(-c3ccccc3)ns2)CC1	.	-11	-3	-3	1.6	-17	.	.	.	.
COC(=O)N1[C@H](Cc2ccccc2)C=C[C@]1(C)C(=O)O	i	-8	-4	0	-3.9	6	0.6	17	13	5.9
COC(=O)c1ccc(CSc2nc3ccc(S(=O)(=O)N4CCOCC4)cc3[nH]2)cc1	.	0	0	-17	0.7	2	.	.	.	.
CCN(CC)S(=O)(=O)c1ccc(C(=O)OCC(=O)NCCN2C(=O)CSC2=O)cc1	i	-4	-4	-4	?	-6	-0.6	15	19	1.6
Cn1c(Cn2c(=O)sc3ccccc32)nnc1SCC(=O)N1CCCC1	i	0	-2	-21	-3.2	-3	-4.1	8	15	-0.4
COc1cc(-c2noc(C)c2C(=O)NCCc2c[nH]c3ccccc23)cc(OC)c1OC	i	11	4	4	3.2	-6	1.1	-11	-2	-5.1
O=C(NC1CCCCC1)C(=S)NCc1ccccc1	i	-3	2	12	-1.0	16	2.8	-4	-5	0.1
CC1CCN(Cc2cc(=O)oc3cc4c(cc23)CCCC4)CC1	i	1	-2	2	?	-7	-4.0	13	7	1.7
O=C(c1cccc(S(=O)(=O)N2CCCC2)c1)N1CCCC(C(F)(F)F)C1 (centres undefined)	i	-7	-5	-2	-2.0	-10	-2.2	8	11	-0.1
NS(=O)(=O)c1ccc(NC(=S)NC(=O)c2cccc(Br)c2)cc1	i	-7	.	.	2.5	2	4.0	-54	-45	-3.7
COC(=O)c1ccc(Oc2ccc(C(C)(C)C)cc2)c([N+](=O)[O-])c1	.	-4	-5	-7	1.7	10	.	.	.	.
